# Screens as filed in PubChem.
# MgcRacGAP – inhibition of MgcRacGAP-stimulated Rac1 GTP hydrolysis – biochemical, inorganic phosphate detection, orthogonal assay, confirmation (AID 652142) | MgcRacGAP/Rac1F28L GTP hydrolysis, Biomol green phosphate; active compounds read high; test concentration not given here; none was called active though about 1 in 100 pass the limit | inhibition, % | 2,400 tested, under 10 active;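 active = inhibition over three standard deviations or about 65%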;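 also: full inhibition control lacks the GAP enzyme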
# * marks the source's active call; other numbers are inactive results.
1) O=c1oc(-c2ccc(O)c(O)c2)cc2cc(O)cc(O)c12
  MgcRacGAP: 17.1

2) O=C1CC(SC(=S)C2CCCC2=O)C(=O)N1 (centres undefined)
  MgcRacGAP: 35.3

3) CCc1nnc(N/N=C/c2cc(Br)c(O)cc2O)n1N
  MgcRacGAP: 25.1

4) O=C(COc1ccc(Nc2ccccc2)cc1)OCC(=O)N1CCCCC1
  MgcRacGAP: 2.9

5) Nc1c(Cl)cc(NC(=O)c2ccccc2C(=O)O)cc1Br
  MgcRacGAP: 33.1

6) CCN(CC)c1ccc(NC(=O)C2=CC=CN3CCS(=O)(=O)N=C23)cc1
  MgcRacGAP: 19.8

7) COc1ccc(O)c(C(c2c(C)[nH][nH]c2=O)c2c(C)[nH][nH]c2=O)c1
  MgcRacGAP: 24.7

8) Nc1[nH]c2cc([N+](=O)[O-])ccc2c1-c1ccccn1
  MgcRacGAP: 21.8

9) O=[N+]([O-])/C(C=Nc1ccccc1O)=C\Nc1ccccc1O
  MgcRacGAP: 16.6

10) Cc1ccc(CN2CCN(Cc3ccccc3C(F)(F)F)CC2)cc1
  MgcRacGAP: 17.2

11) COc1cccc(C(=O)N2CCN(C3CCCCC3)CC2)c1
  MgcRacGAP: 21.5

12) CCN1CCN(CC(O)COC(c2ccccc2)c2ccccc2C)CC1 (centres undefined)
  MgcRacGAP: 27.2

13) CCN1CCN(C(=S)NCC2CCCO2)CC1 (centres undefined)
  MgcRacGAP: 28.1

14) O=C1CCCCCN1Sc1ccccc1
  MgcRacGAP: 54.4

15) Brc1csc(C=Nc2ccc3c(c2)OCCOCCOCCOCCO3)c1
  MgcRacGAP: 9.8

16) NS(=O)(=O)c1ccc(CCNCC(=O)N2CCC(Cc3ccccc3)CC2)cc1
  MgcRacGAP: 24.2

17) COc1ccc(CN2CCC(N3CC(C)OC(C)C3)CC2)c(OC)c1OC (centres undefined)
  MgcRacGAP: 12.9

18) CC/C(=C\c1ccc(N(C)C)cc1)c1ccncc1
  MgcRacGAP: 19.1

19) CCN1CCN(CCCOc2ccc(Cl)cc2Br)CC1
  MgcRacGAP: 20.1

20) Cc1ccc(C(C2=C(O)CC(C)(C)CC2=O)C2C(=O)CC(C)(C)CC2=O)o1 (centres undefined)
  MgcRacGAP: 57.0

21) O=C(O)c1ccc(COc2ccccc2C=C2C(=O)c3ccccc3C2=O)cc1
  MgcRacGAP: 49.4

22) Cc1cc(C)c2c(=N)c3ccccc3n(CCCCCCCCn3c4ccccc4c(=N)c4c(C)cc(C)nc43)c2n1
  MgcRacGAP: 75.0

23) O=C(NC(=S)Nc1cccc2c(O)cccc12)c1ccco1
  MgcRacGAP: 10.4

24) CC(C(=O)Nc1ccc2c(c1)OCO2)N1CCN(C)CC1 (centres undefined)
  MgcRacGAP: 32.4

25) Cc1ccccc1-c1ccc(Nc2ccc(N3CCOCC3)cc2)nn1
  MgcRacGAP: 33.6

26) O=C(CN1CCc2ccccc2C1)Nc1ccccc1C(F)(F)F
  MgcRacGAP: 31.8

27) N#Cc1c(Nc2ccccc2)s[nH]c1=O
  MgcRacGAP: 57.1

28) c1ccc(-c2ccccc2OCCN2CCOCC2)cc1
  MgcRacGAP: 13.7

29) COc1ccc2c(c1)-c1nc(N)sc1CC2
  MgcRacGAP: 21.1

30) COc1cc(-c2nc3ccccn3c2/N=C/c2cc(OC)c(O)cc2Cl)ccc1O
  MgcRacGAP: 23.7

31) COc1ccc(OCCn2ccnc2C)cc1
  MgcRacGAP: 28.9

32) c1ccc(-c2nnc3n2NC(c2ccc4c(c2)OCO4)S3)cc1 (centres undefined)
  MgcRacGAP: 3.1

33) COc1cc(N=Nc2ccc(C)cc2S(N)(=O)=O)c(C)cc1N
  MgcRacGAP: 15.3

34) CC(C)(C)N(NS(=O)(=O)c1ccc(F)cc1)c1ccccc1
  MgcRacGAP: 28.2

35) CN(C)c1ccc2cc(S(=O)(=O)O)cc(O)c2c1
  MgcRacGAP: 20.7

36) COc1cc2c(cc1NCc1ccc3c(c1)OCO3)oc1ccccc12
  MgcRacGAP: 18.0

37) COc1ccc2[nH]c3c(=O)n(CCCCC(=O)N4CCC(C(N)=O)CC4)c(=S)[nH]c3c2c1
  MgcRacGAP: 29.2

38) CC(=O)Nc1ccc2sn(-c3ccccc3)c(=O)c2c1
  MgcRacGAP: 76.6

39) CCOC(=O)c1[nH]c2cc(OC)c(OC)cc2c1N
  MgcRacGAP: 30.8

40) COc1ccc(NC2CCCN(C(=O)c3ccc(CSC)o3)C2)cc1OC (centres undefined)
  MgcRacGAP: 20.2

41) COc1cccc(Nc2ccc(N3CCCCC3)cc2)c1OC
  MgcRacGAP: 21.0

42) CCN(CC)S(=O)(=O)c1cccc(-c2n[nH]c(=S)n2/N=C/c2ccc(C(=O)OC)cc2)c1
  MgcRacGAP: 14.7

43) Nc1ccc(Nc2ccccc2)c(Cl)c1
  MgcRacGAP: 18.2

44) Nc1ccc2nc(C3CCCCC3)[nH]c2c1
  MgcRacGAP: 28.4

45) COc1ccc(CNCC(=O)Nc2ccccc2-n2cccc2)cc1
  MgcRacGAP: 24.3

46) COc1cc(/C=N/NC(=O)c2cc(-c3c(C)nn(-c4ccccc4)c3C)n[nH]2)ccc1O
  MgcRacGAP: 25.1

47) CC(=O)Nc1ccc(Oc2nc(-c3ccccn3)nc3ccccc23)cc1
  MgcRacGAP: 26.0

48) CC1CCN(C(=O)COc2ccc(Nc3ccccc3)cc2)CC1
  MgcRacGAP: 10.4

49) CC(C)(C)c1nnc(N/N=C/c2ccc(O)cc2)n(N)c1=O
  MgcRacGAP: 20.9

50) CCN1CCN(CCCCOc2ccccc2F)CC1
  MgcRacGAP: 14.7

51) CN(C)c1ccc(NC(=O)c2sc(SCC(=O)Nc3nccs3)nc2N)cc1
  MgcRacGAP: 29.2

52) CN(C)c1ncc(C2=C(Cl)C(=O)C(N3CCCC3)=C(Cl)C2=O)s1
  MgcRacGAP: 81.1

53) CCN(CC)c1ccc(/C=N/NC(=O)c2cc3ccccc3[nH]2)cc1
  MgcRacGAP: 19.9

54) NC(N)=N/N=C/c1ccc(Cl)cc1Cl
  MgcRacGAP: 4.2

55) Oc1ccc(-c2csc(Nc3cccnc3)n2)cc1
  MgcRacGAP: 34.3

56) Cc1oc(-c2ccccc2)cc1C(=O)Nc1ccc(N(C)C)cc1
  MgcRacGAP: 36.9

57) CCCc1c(C)[nH]c2ccc(C(=O)O)cc2c1=S
  MgcRacGAP: 46.4

58) Cc1cc(C)c(C)c(S(=O)(=O)N2CCN(c3ccc(O)cc3)CC2)c1C
  MgcRacGAP: 17.7

59) S=c1[nH]nc(-c2ccco2)n1/N=C/c1ccc(Cl)cc1
  MgcRacGAP: 25.0

60) COc1ccccc1CN1CCN(C(=O)c2ccncc2)CC1
  MgcRacGAP: 5.1

# Reprinted at random: 3 records from the list.
24) CC(C(=O)Nc1ccc2c(c1)OCO2)N1CCN(C)CC1 (centres undefined)
  MgcRacGAP: 32.4

45) COc1ccc(CNCC(=O)Nc2ccccc2-n2cccc2)cc1
  MgcRacGAP: 24.3

40) COc1ccc(NC2CCCN(C(=O)c3ccc(CSC)o3)C2)cc1OC (centres undefined)
  MgcRacGAP: 20.2

# Continuation.
61) COc1cc(/C=C/C(=O)OCc2cn3cc(Cl)ccc3n2)ccc1O
  MgcRacGAP: 33.1

62) O=C(CN1CCN(c2ccc(O)cc2)CC1)NC(=O)NCc1ccco1
  MgcRacGAP: 20.8

63) Cc1cccc(/C(N)=N/OC(=O)N2c3ccccc3Sc3ccccc32)c1
  MgcRacGAP: 25.6

64) CC1CCN(CC(=O)Nc2ccc(S(=O)(=O)NC3CC3)cc2)CC1
  MgcRacGAP: 30.7

65) CN(c1ccccc1)c1ccc(/C=C/[N+](=O)[O-])cc1
  MgcRacGAP: 17.8

66) O=C(O)c1ccc(S(=O)(=O)c2ccc3c(c2)C(=O)N(NC(=O)c2cccnc2)C3=O)cc1
  MgcRacGAP: 5.0

67) Oc1ccc(/C=N/Nc2cccc(Cl)n2)c(O)c1
  MgcRacGAP: 25.1

68) Cc1ccc(N2C(S)=C(C#N)C(=O)NC23CCCCC3)cc1
  MgcRacGAP: 21.9

69) COc1cc(-c2cc(-c3ccc(O)cc3)nc(N)c2C#N)ccc1O
  MgcRacGAP: 14.4

70) Cc1cc(C)n(CCC(=O)N/N=C/c2ccc(O)cc2)n1
  MgcRacGAP: 2.4

71) COc1cc(CN2CCN(c3ccccc3F)CC2)cc(OC)c1O
  MgcRacGAP: -1.1

72) Cc1cs/c(=N\N=C\c2ccc(O)cc2)n1Cc1ccco1
  MgcRacGAP: 31.6

73) Oc1ccc(/C=C/c2ccc3ccccc3n2)cc1
  MgcRacGAP: 35.5

74) CCN(CC)c1ccc(NC(=O)c2ccc(S(=O)(=O)N3CCOCC3)cc2)cc1
  MgcRacGAP: 25.7

75) COc1ccc(NC2=NCCC2)cc1
  MgcRacGAP: 13.7

76) COc1cccc(CN2CCN(Cc3cc(OC)c(OC)cc3[N+](=O)[O-])CC2)c1
  MgcRacGAP: 5.7

77) CCOc1cc(/C=N/n2c(C)nnc2C)ccc1O
  MgcRacGAP: 17.1

78) CN(c1ccccc1)S(=O)(=O)c1cccc(C(=O)NCCc2ccc(O)c(O)c2)c1
  MgcRacGAP: 23.4

79) Oc1ccc(Cc2ccc(Cl)cc2)c(O)c1
  MgcRacGAP: 25.3

80) COc1cc(/C=C2\SC(=S)N(Nc3ccccc3)C2=O)ccc1O
  MgcRacGAP: 19.2

# Compounds listed so far with an aryl methoxy group, in the order listed:
7) COc1ccc(O)c(C(c2c(C)[nH][nH]c2=O)c2c(C)[nH][nH]c2=O)c1
  MgcRacGAP: 24.7

11) COc1cccc(C(=O)N2CCN(C3CCCCC3)CC2)c1
  MgcRacGAP: 21.5

17) COc1ccc(CN2CCC(N3CC(C)OC(C)C3)CC2)c(OC)c1OC (centres undefined)
  MgcRacGAP: 12.9

29) COc1ccc2c(c1)-c1nc(N)sc1CC2
  MgcRacGAP: 21.1

30) COc1cc(-c2nc3ccccn3c2/N=C/c2cc(OC)c(O)cc2Cl)ccc1O
  MgcRacGAP: 23.7

31) COc1ccc(OCCn2ccnc2C)cc1
  MgcRacGAP: 28.9

33) COc1cc(N=Nc2ccc(C)cc2S(N)(=O)=O)c(C)cc1N
  MgcRacGAP: 15.3

36) COc1cc2c(cc1NCc1ccc3c(c1)OCO3)oc1ccccc12
  MgcRacGAP: 18.0

37) COc1ccc2[nH]c3c(=O)n(CCCCC(=O)N4CCC(C(N)=O)CC4)c(=S)[nH]c3c2c1
  MgcRacGAP: 29.2

39) CCOC(=O)c1[nH]c2cc(OC)c(OC)cc2c1N
  MgcRacGAP: 30.8

40) COc1ccc(NC2CCCN(C(=O)c3ccc(CSC)o3)C2)cc1OC (centres undefined)
  MgcRacGAP: 20.2

41) COc1cccc(Nc2ccc(N3CCCCC3)cc2)c1OC
  MgcRacGAP: 21.0

45) COc1ccc(CNCC(=O)Nc2ccccc2-n2cccc2)cc1
  MgcRacGAP: 24.3

46) COc1cc(/C=N/NC(=O)c2cc(-c3c(C)nn(-c4ccccc4)c3C)n[nH]2)ccc1O
  MgcRacGAP: 25.1

60) COc1ccccc1CN1CCN(C(=O)c2ccncc2)CC1
  MgcRacGAP: 5.1

61) COc1cc(/C=C/C(=O)OCc2cn3cc(Cl)ccc3n2)ccc1O
  MgcRacGAP: 33.1

69) COc1cc(-c2cc(-c3ccc(O)cc3)nc(N)c2C#N)ccc1O
  MgcRacGAP: 14.4

71) COc1cc(CN2CCN(c3ccccc3F)CC2)cc(OC)c1O
  MgcRacGAP: -1.1

75) COc1ccc(NC2=NCCC2)cc1
  MgcRacGAP: 13.7

76) COc1cccc(CN2CCN(Cc3cc(OC)c(OC)cc3[N+](=O)[O-])CC2)c1
  MgcRacGAP: 5.7

80) COc1cc(/C=C2\SC(=S)N(Nc3ccccc3)C2=O)ccc1O
  MgcRacGAP: 19.2

# The list is partial. The share of hits here may be higher or lower than overall.
